E coli growth: E. coli growth inhibition | Escherichia coli growth, OD600, 23 h; stronger effect = lower value | OD600 absorbance (no concentration beside the values) | hit rate 0.21% among 330,000;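 active means OD600 absorbance below the run mean of sample wells minus 3.6 SD, in any replicate, cut at about 0.56 in these data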;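 further: stock transfer was 300 nL into about 60 µL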
FGF22 binding: FGF22 (human) thermal shift binding; recombinant FGF22 thermal shift, SYPRO orange fluorescence; percent of sucrose octasulfate shift, DMSO zero; calls only at 9.99 µM; AID 651658; Q9HCT0; hit rate 1.5% among 340,000;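 active means melting point raised past a set limit in the mean and every replicate; three in four hits are not shown here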
Target sequence (Q9HCT0 whole entry, looked up): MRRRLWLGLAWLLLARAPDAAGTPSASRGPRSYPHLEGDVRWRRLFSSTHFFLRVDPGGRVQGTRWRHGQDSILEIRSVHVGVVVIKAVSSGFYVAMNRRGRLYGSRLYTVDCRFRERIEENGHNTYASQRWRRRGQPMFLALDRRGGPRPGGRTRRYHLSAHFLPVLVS
UCH37 DUB inh: human UCH37 deubiquitinating enzyme inhibition. hit rate 0.33% among 330,000. purified proteasome/UCH37, Ub-AMC cleavage fluorescence. Q9Y5K5. inhibition, % (test concentration not listed);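 active means mean of two replicates above 20%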;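 further: 0% = compound-free wells with enzyme and 100% = wells lacking proteasome; stock transfer was 100 nL into about 20 µL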
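System: Proteasome-associated human UCH37 deubiquitinase; Input: 0.15 nM proteasome in added enzyme buffer; Also added: Ub-AMC substrate from 1 µM stock; Incubation: 30 min compound-proteasome preincubation then 25 min substrate reaction, room temperature; Detection: fluorescence, ex 355 nm, em 460 nm; Read-out: % inhibition of Ub-AMC cleavage fluorescence; Benchmarks: no-proteasome and no-compound wells.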
LANA-H2B inh: blocks KSHV LANA binding to histone H2A/H2B | Q9QR71 | cell-free LANA-H2A/H2B peptide, fluorescence polarization | inhibition, % (no concentration beside the values) | hit rate 0.6% among 320,000; in the data active means inhibition mostly above about 10%, no sharp cut-off; inactive means mostly below about 6.7%;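 further: stock transfer was 7.5 nL into about 10 µL; 0% = median of vehicle wells and 100% = median of positive control wells; one replicate is shown; the record names a cut of 25% in any replicate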
HNF4A DNA FP: change in binding of human HNF4 alpha to DNA | hit rate 0.3% among 360,000 | HNF4a-FITC DNA binding, fluorescence polarization, 1 h | activity change, % at 10 µM | P41235; in the data active means activity change above about 30%, passing the limit was not always enough;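 further: controls were the assay level and a saturating level of protein; the project sought stronger binding though the title names inhibitors; some compounds called inactive have numbers as strong as hits; positive values seem to mean higher polarization but the record does not say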
Target sequence (P41235 whole entry, looked up): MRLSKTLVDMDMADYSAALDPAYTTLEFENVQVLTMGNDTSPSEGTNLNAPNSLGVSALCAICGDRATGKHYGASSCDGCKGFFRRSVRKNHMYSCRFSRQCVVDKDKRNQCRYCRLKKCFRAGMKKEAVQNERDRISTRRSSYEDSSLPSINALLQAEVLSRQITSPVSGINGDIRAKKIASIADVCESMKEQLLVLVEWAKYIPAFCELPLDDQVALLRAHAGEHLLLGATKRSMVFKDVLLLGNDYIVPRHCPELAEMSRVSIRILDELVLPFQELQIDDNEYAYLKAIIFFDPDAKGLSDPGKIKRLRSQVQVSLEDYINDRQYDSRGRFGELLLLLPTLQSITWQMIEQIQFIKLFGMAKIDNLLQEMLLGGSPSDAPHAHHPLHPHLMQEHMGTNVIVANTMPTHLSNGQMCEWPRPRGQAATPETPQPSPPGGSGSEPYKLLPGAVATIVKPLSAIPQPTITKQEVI
B2AR ag: human beta-2 adrenergic receptor agonism by FAP; P07550; response, % (concentration not given with the values); Am2.2-beta2AR cells, FAP receptor internalization, flow cytometry; reference of the scale not given here; hit rate 0.43% among 340,000;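 active means response above a set limit, near 3 SD of response in nonfluorescent compounds, cut at about 42% in these data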;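 further: stock transfer was 100 nL into about 11 µL; a reference agonist was the positive control; negative values mostly stem from fluorescent compounds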
Target sequence (P07550 whole entry, looked up): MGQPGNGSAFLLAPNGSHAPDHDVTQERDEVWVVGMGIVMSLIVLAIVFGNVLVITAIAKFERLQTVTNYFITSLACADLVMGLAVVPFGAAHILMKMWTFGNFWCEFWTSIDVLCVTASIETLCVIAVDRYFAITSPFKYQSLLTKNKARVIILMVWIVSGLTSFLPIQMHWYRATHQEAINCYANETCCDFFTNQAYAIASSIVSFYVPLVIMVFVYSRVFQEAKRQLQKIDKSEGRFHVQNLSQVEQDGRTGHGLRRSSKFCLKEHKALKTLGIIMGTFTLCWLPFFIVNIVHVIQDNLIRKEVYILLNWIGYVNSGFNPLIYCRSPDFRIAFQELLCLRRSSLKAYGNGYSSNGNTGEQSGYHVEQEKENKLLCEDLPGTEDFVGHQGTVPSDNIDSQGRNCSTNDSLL
ALR inh: blocks human ALR sulfhydryl oxidase activity; P55789; purified ALR, DTT oxidation, H2O2 HRP-luminol luminescence; inhibition, % (no concentration beside the values); hit rate 3.8% among 290,000;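 active means mean and each replicate at 75% or more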;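 further: stock transfer was 7.5 nL into about 7.5 µL; 0% = neutral wells and 100% = wells with inactivated enzyme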
The depositor's hits bear a star; i = inactive; . = no result given. Not all compounds are listed; count on the stated rates, not on these rows.

SMILES	E coli growth	FGF22 binding	UCH37 DUB inh	LANA-H2B inh	HNF4A DNA FP	B2AR ag	ALR inh
O=C(COC(=O)c1ccccc1)NC(=O)NC1CCCC1	0.655	i	0.0	.	-0.2	34.1	.
C/C(=N/NC(=O)c1sc(NS(=O)(=O)c2ccccc2)nc1C)c1ccc(F)cc1	.	i	.	-6.7	1.7	-0.4	15.4
Cc1ccccc1C(=O)NNC1CC(=O)N(c2ccc3c(c2)OCCO3)C1=O (stereo unspecified)	0.657	.	4.0	0.1	1.1	-8.7	6.8
COC(=O)CNC(c1ccccc1)c1cc(Cl)ccc1NC(=O)c1cccc(Cl)c1 (stereo unspecified)	0.729	i	1.5	-3.7	-3.2	-27.9	-3.5
CCCOC(=O)c1c(NC(=O)/C=C/c2cnn(C)c2C)sc(C(=O)OCC)c1C	0.689	.	-230.1	-1.3	0.5	-4.7	-8.5
Cc1cc([N+](=O)[O-])cc2ncccc12	0.694	.	6.0	-4.3	0.9	8.5	-13.0
COc1ccc(CNC(=O)c2cc(SC)ccc2Cl)cc1OC	0.683	i	6.9	2.5	2.2	-3.8	-3.2
CC(=O)Nc1nnc(SCc2ccc(F)cc2)s1	0.698	.	2.2	-3.3	2.1	-3.6	-2.9
CN(C)/C=C(\C#N)C(N)=C(C#N)C#N	0.614	i	5.7	-4.2	-5.4	3.7	-29.3
CN(C)S(=O)(=O)c1cccc(NC(=O)c2cccc(S(=O)(=O)N3CCCCC3)c2)c1	.	i	.	3.0	0.2	1.9	.
CC1=NN(c2ccc(Cl)cc2)C(=O)C1	0.657	i	1.3	-3.3	6.3	11.6	-1.2
CCN1CCN(c2ccc(NC(=O)c3cc(OC)c(OC)c(OC)c3)cc2)CC1	0.68	i	4.8	4.0	-3.7	2.6	0.3
O=C1c2ccccc2N2C(=O)c3ccccc3C2N1O (stereo unspecified)	0.73	.	-3.7	-4.1	-2.5	-6.8	15.1
CC(=O)O[C@H]1C[C@@]2(O)[C@@H](OC(=O)c3ccccc3)C3[C@@](C)([C@@H](O)C[C@H]4OC[C@@]34OC(C)=O)[C@@H](O)[C@H](OC(C)=O)C(=C1C)C2(C)C (stereo partly specified)	0.763	i	2.9	-6.4	-0.4	-1.6	-2.7
COc1nc(-c2ccccc2)nnc1-c1ccccc1	0.656	i	1.1	.	1.4	0.2	.
COc1ccccc1N1C(=O)Cc2ccccc2C1=O	0.678	i	0.4	-10.5	-2.5	2.2	2.7
Cc1ccc2nc(SCC(=O)Nc3ccc(C)c(Cl)c3)nc(=O)n2c1	0.645	i	-5.3	-0.5	0.7	-10.1	-4.3
S=C(NCc1ccccc1)NNc1ccccc1	0.579	.	-0.4	0.8	11.1	-0.2	12.6
OC1(c2cccc(C(F)(F)F)c2)CCN(Cc2nnnn2Cc2ccccc2)CC1	0.694	i	-0.1	-2.5	8.7	11.2	.
CC1CCN(C(=O)CSC2=NS(=O)(=O)c3cc(F)ccc3N2)CC1	0.639	i	-0.2	0.9	1.5	-3.6	11.6
O=C(NCC1COc2ccccc2O1)c1ccc(Br)s1 (stereo unspecified)	.	i	.	3.6	0.0	-9.2	-23.5
N#CCCN(C1CCCCC1)S(=O)(=O)c1cccc2nsnc12	0.688	.	4.6	7.1	0.8	5.6	.
COCCCN1C(=O)C(=O)/C(=C(/O)c2ccc(S(=O)(=O)N3CCOCC3)cc2)C1c1ccc(F)cc1 (stereo unspecified)	0.656	i	6.4	-2.9	0.8	4.1	-7.4
Cc1onc(-c2ccccc2)c1C(=O)NCc1cccnc1	0.712	.	1.1	0.5	0.8	3.1	-31.4
Cc1cc(C)nc(NS(=O)(=O)c2ccc(NC(=O)Cn3c(=O)oc4ccccc43)cc2)n1	0.709	i	8.6	0.4	-1.0	0.5	-6.1

Quoted at random: three records from the list.
SMILES	E coli growth	FGF22 binding	UCH37 DUB inh	LANA-H2B inh	HNF4A DNA FP	B2AR ag	ALR inh
CCN1CCN(c2ccc(NC(=O)c3cc(OC)c(OC)c(OC)c3)cc2)CC1	0.68	i	4.8	4.0	-3.7	2.6	0.3
COc1ccc(CNC(=O)c2cc(SC)ccc2Cl)cc1OC	0.683	i	6.9	2.5	2.2	-3.8	-3.2
Cc1ccc2nc(SCC(=O)Nc3ccc(C)c(Cl)c3)nc(=O)n2c1	0.645	i	-5.3	-0.5	0.7	-10.1	-4.3

(further entries)
SMILES	E coli growth	FGF22 binding	UCH37 DUB inh	LANA-H2B inh	HNF4A DNA FP	B2AR ag	ALR inh
Cc1ccccc1-n1c(=O)n(Cc2ccccc2)c(=O)c2[nH]cnc21	0.678	i	2.1	6.1	-5.5	1.2	.
Cc1ccccc1/C(N)=N/O	0.711	.	4.7	0.3	-0.5	2.5	.
Cc1cc(C(=O)NCCCc2ccccc2)no1	0.68	i	4.2	4.8	-4.7	-1.2	-0.8
COc1cc(NC(=O)[C@H]2CSCN2C(=O)[C@@H]2CCC(=O)N2)cc(OC)c1OC	0.685	i	5.5	14.3*	-3.1	-7.5	-17.3
O=c1[nH]c(SCc2ccccc2Cl)nc2c1CCCC2	0.699	.	-2.7	-0.8	5.9	0.1	43.8
CC1=[N+]([O-])C(C)(C)CC(C)(C)c2ccccc21	0.68	.	0.6	0.7	4.6	7.2	-3.0
COc1cc(/C=N/n2c(-c3cc(C)[nH]n3)n[nH]c2=S)cc(OC)c1OC	.	i	.	1.4	-1.0	5.5	26.8
O=C(NCCN1CCOCC1)c1cc(-c2ccccc2Cl)nc2ccccc12	0.685	i	1.4	4.0	2.7	2.2	1.3
C/C(=N\Oc1cccc(F)n1)c1ccc(Cl)cc1Cl	.	.	.	-2.0	-0.2	-2.4	-1.9
Cc1ccc(C(=O)NNC(=O)C2CCN(S(=O)(=O)c3ccc(Cl)cc3)CC2)cc1	0.708	i	-1.0	-1.4	-3.6	-1.1	-3.4
C#Cc1ccc([C@H]2C=C(C(=O)N3CCN(Cc4ccc5c(c4)OCO5)CC3)O[C@@H](OCc3ccc(CO)cc3)C2)cc1	.	i	3.8	-2.9	-0.7	16.9	-8.8
COc1ccccc1C(=O)NNC(=S)NC(=O)c1cccs1	.	i	.	-11.2	2.3	5.7	19.4
COc1ccc(-c2nn(-c3ccccc3C)cc2CNCc2cccnc2)cc1F	0.664	i	3.3	2.1	3.1	-5.5	1.5
O=C(c1cc(COc2ccc3ncccc3c2)on1)N1CCCCCC1	0.681	i	2.1	2.7	-1.5	-8.3	-5.5
Cc1oc(-c2ccc(Cl)cc2)nc1CS(=O)CC(=O)NCCN1CCCCCC1 (stereo unspecified)	0.728	i	6.8	0.4	-0.6	-6.3	99.2*
Cc1cc2n(n1)C(c1c[nH]c3ccccc13)Nc1ccccc1-2 (stereo unspecified)	0.656	.	-81.9	5.6	2.8	1.7	-2.6
COc1ccc(C(C(=O)NC(C)(C)C)N(Cc2ccccc2)C(=O)CCC(=O)Nc2cc(C)on2)cc1 (stereo unspecified)	0.731	.	3.2	-1.3	-2.6	0.7	.
CC1(C)OC(=O)N(Cc2ccco2)C1(C)O (stereo unspecified)	0.662	.	6.0	-1.7	0.1	2.7	-4.4
Cc1cc(F)ccc1S(=O)(=O)N(CC(=O)N1CCOCC1)CC(=O)N1CCOCC1	0.67	i	1.8	0.3	0.6	-1.5	-2.1
COc1ccc2cc(OC)c(C(=O)N3CCOCC3)cc2c1	0.678	i	-223.4	0.7	-0.9	-8.6	-30.3
Cc1nnc(SCC(=O)Nc2nsc(-c3ccc(Cl)cc3)n2)s1	0.674	.	0.3	1.6	-0.6	-9.0	-6.7
CCN(CC)CCNC(=O)c1ccc(NC(=O)/C=C/c2cc(OC)c(OC)c(OC)c2)cc1	0.663	i	-24.5	-1.3	1.0	2.5	-0.9
CCCCN(C)C(=O)c1cc2c(Cl)nc3ccccc3c2s1	0.663	i	2.9	1.1	-0.6	-16.1	50.6
Cc1ccc(S(C)(=O)=O)cc1C(=O)OCC(=O)N(Cc1ccccc1)Cc1ccccc1	0.735	i	-1.8	-1.9	-0.9	1.2	.
CSCC[C@H](NC(=O)Cc1c(C)c2cc3c4c(oc3cc2oc1=O)CCCC4)C(=O)O	0.641	i	-35.4	-2.3	1.0	-0.7	0.6
(further entries)
SMILES	E coli growth	FGF22 binding	UCH37 DUB inh	LANA-H2B inh	HNF4A DNA FP	B2AR ag	ALR inh
NS(=O)(=O)c1ccc(NC(=O)CCCCC(=O)Nc2ccc(S(N)(=O)=O)cc2)cc1	0.709	i	5.3	-6.8	-0.3	-5.0	-0.2
Cc1ccc(S(=O)(=O)NCCC(=O)NC2CCCCCC2)cc1	0.61	i	0.4	.	-1.1	-4.6	.
COc1ccc(NC(=O)CSc2nnc3ccc(-c4cccnc4)nn23)c(OC)c1	0.683	i	0.2	-0.4	-1.8	-2.1	-9.3
CCOn1c(=O)c(C)[n+]([O-])c2ccccc21	0.672	.	-0.5	-4.8	2.7	-7.4	-29.0
O=C(NC(C(=O)O)c1ccccc1)c1ccc(S(=O)(=O)N2CCOCC2)cc1 (stereo unspecified)	0.679	.	1.1	-4.2	0.7	-0.8	-0.8
CC(O)CNc1cnccn1 (stereo unspecified)	0.685	.	-69.1	5.3	0.4	2.6	-5.4
Cc1ccc2nc(-c3ccncc3)cc(C(=O)NCc3ccccc3F)c2c1	0.711	i	-19.3	1.6	1.0	4.2	0.5
O=C(Cn1c(COc2ccccc2)nc2ccccc21)Nc1cc(Cl)c(Cl)cc1Cl	0.677	.	3.2	3.8	.	.	-5.2
CC(=O)Oc1cccc(N2C(=O)C3C4C=CC(CC4)C3C2=O)c1 (stereo unspecified)	0.674	i	6.4	5.6	2.8	-4.2	-30.4
OC(c1ccccc1)c1nc2ccccc2[nH]1 (stereo unspecified)	0.604	i	0.7	1.2	-1.4	-3.9	.
O=C(CCC(=O)N1CCOCC1)c1ccc(F)cc1	0.759	i	2.4	2.0	5.1	0.8	0.3
COc1ccccc1Nc1nc(N)nc(CN2CCN(Cc3ccc4c(c3)OCO4)CC2)n1	0.702	i	0.3	5.7	1.2	-0.9	-9.3
C/C(=N\NC(=O)Nc1ccccc1)c1ccc2ccccc2c1	.	.	.	-1.7	1.7	12.7	-14.6
CCc1c(C)nc2c(OC)cccc2c1SCCC(=O)O	0.704	i	-11.3	1.7	-0.7	2.5	-5.3
CCC1S/C(=N/N=C/c2ccco2)N(Cc2ccc(F)cc2)C1=O (stereo unspecified)	.	i	.	-5.0	7.2	-9.0	15.8
O=C(COc1cc(Cl)c(Cl)cc1Cl)Nc1ccncc1	0.733	.	5.0	0.3	0.3	-15.2	-4.9
N#Cc1ccc(C(c2nnnn2Cc2ccccc2)N2CCCC2)cc1 (stereo unspecified)	0.74	.	0.0	-0.8	0.3	-2.9	.
COc1cccc(OC)c1C(=O)N1CCN(Cc2ccc3c(c2)OCO3)CC1	0.705	.	-0.5	5.6	-2.2	6.8	-5.1
CCOc1cc(/C=N/NC(=O)CN2CCCCC2)ccc1O	.	i	.	-4.1	-2.8	-6.9	98.9*
O=C(NCc1ccccc1)C(c1ccco1)N(C(=O)c1csnn1)C1CC1 (stereo unspecified)	0.66	i	-0.9	-2.6	2.5	6.7	-7.7
COc1ccc(NS(=O)(=O)c2cccc(C(=O)O)c2)cc1S(=O)(=O)N1CCOCC1	0.693	i	4.7	-5.9	1.0	-6.9	7.1
O=C(N/N=C/c1cc([N+](=O)[O-])ccc1O)C1CCCCC1	.	i	.	5.3	1.7	4.6	-1.0
Cc1cccc(N(CC(=O)NCc2ccc3c(c2)OCO3)C(=O)CCC(=O)Nc2ccccn2)c1	0.715	.	7.1	5.8	-2.0	0.1	18.6
CC(C)CCN(C)c1ccc(/C=N/n2cnnc2)cc1	.	.	.	-0.1	-0.4	0.8	70.5
O=C(Nc1ccc2c(c1)OCO2)c1ccc(CN2CCOCC2)cc1	0.693	.	2.5	-1.9	1.4	0.1	-11.0
CCO[C@H]1OC(C(=O)N2CCCCCCC2)=C[C@@H](C)[C@@H]1CCCO	.	i	4.1	-3.2	-1.9	-3.5	-5.4
